# Compound activity: PubChem BioAssay, Broad Institute
# Vaccinia stage: blocks a specific stage of Vaccinia orthopoxvirus infection; activity change (mCherry), % (no concentration beside the values); 89,000 tested, 0.01% active; AID 1053133; Vaccinia-infected cells, mCherry/Venus stage reporter fluorescence; stronger effect = lower value; some inactives read as strong as hits;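 active means mCherry past -33% and 40 or more points under the early reporter, replicates agreeing; inconclusive means past -33% without that gap or agreement; tested in A549 cells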;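 further: scaled between vehicle wells and reference inhibitor wells; 23 nL library stock went into each well; one replicate is shown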
# Vaccinia stage Venus: second read-out of Vaccinia stage, no call of its own (marks repeat the call); activity change (Venus), %; measured here: Venus reporter, other viral stage;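 negative = less Venus signal; first of two replicates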
# Numbers without * were called inactive; ? = inconclusive; · = not tested or not shown; & = joins results of further samples. The list is partial; count on the stated rates, not on these rows.
Structure	Vaccinia stage	Vaccinia stage Venus
Cc1noc(C)c1NC(=O)Nc1ccc2c(c1)C(=O)N([C@H](C)CO)C[C@H](C)[C@@H](CN(C)Cc1ccc3c(c1)OCO3)O2	1.7	-0.4
C[C@H](CO)N1C[C@H](C)[C@@H](CN(C)CC2CC2)Oc2ccc(NS(=O)(=O)c3ccc(Cl)cc3)cc2CC1=O	-0.1	3.3
CO[C@H]1CN(C)C(=O)c2ccc(NC(=O)CC(F)(F)F)cc2OC[C@@H](C)N(S(=O)(=O)c2cn(C)cn2)C[C@@H]1C	7.8	16.4
O=C(CC1CC1)Nc1ccc2c(c1)[C@@H]1C[C@@H](CC(=O)NC3CCCCC3)O[C@@H](CO)[C@@H]1O2	-3.3	-4.7
CC(C)[C@H]1COCn2nncc2CC[C@H](C)C(=O)N1	-4.6	-2.9
C[C@@H]1CN([C@@H](C)CO)C(=O)Cc2cc(NC(=O)CCCCCC(=O)Nc3ccccc3N)ccc2O[C@@H]1CN(C)S(C)(=O)=O	11.3	8.4
C[C@@H]1CN([C@H](C)CO)C(=O)Cc2cc(NS(=O)(=O)c3ccc(F)cc3)ccc2O[C@@H]1CN(C)C(=O)Nc1cccc2ccccc12	37.6	14.0
COCC#Cc1ccc([C@@H]2[C@@H](CO)N3CCCCN(C(=O)CN(C)C)C[C@@H]23)cc1	13.4	1.0
C[C@@H]1CN([C@@H](C)CO)C(=O)c2cc(NS(=O)(=O)c3cn(C)cn3)ccc2O[C@@H](C)CCCCO[C@@H]1CN(C)S(=O)(=O)c1cn(C)cn1	18.4	8.9
O=C(N[C@@H]1CC[C@@H](CCNS(=O)(=O)Cc2ccccc2)O[C@@H]1CO)c1ccccc1F	11.6	15.7

Structure	Vaccinia stage	Vaccinia stage Venus
COc1ccc(S(=O)(=O)Nc2ccc3c(c2)C(=O)N([C@@H](C)CO)C[C@H](C)[C@H](CN(C)C(=O)Nc2ccccc2)O3)cc1	19.0	16.4
CCCNC(=O)C[C@@H]1CC[C@@H]2[C@H](COc3ccc(NC(=O)C4CCCC4)cc3C(=O)N2C)O1	-1.9	-2.6
C/C=C/c1ccc([C@H]2[C@@H](CO)N(S(C)(=O)=O)[C@@H]2CN(C(C)=O)C(C)C)cc1	-0.8	-3.2
COc1ccc2c3c(n(C)c2c1)[C@@H](CO)N(C(=O)c1ccncc1)CC31CN(C(C)=O)C1	8.3	4.8
CO[C@@H]1CN(C)C(=O)c2cc(NC(=O)C3CCOCC3)ccc2OC[C@@H](C)N(S(=O)(=O)c2ccc(C)cc2)C[C@H]1C	-7.8	-10.7
COC(=O)C[C@@H]1C[C@@H]2c3cc(NC(=O)NC4CCCCC4)ccc3O[C@@H]2[C@H](CO)O1	0.2	-1.5
CNC(=O)C[C@H]1CC[C@@H]2[C@H](COC[C@@H](O)CN2Cc2ccccc2F)O1	10.6	7.2
C[C@@H]1CN([C@@H](C)CO)C(=O)c2cc(C3=CCCCC3)cnc2O[C@H]1CN(C)C(=O)Nc1cccc(F)c1	-8.3&-3.1	-12.5&-5.2
COc1ccc(CN(C)C[C@H]2Oc3ccc(NS(C)(=O)=O)cc3CC(=O)N([C@H](C)CO)C[C@H]2C)cc1	4.7	1.7
COc1ccc(-c2ccc3c(c2)O[C@@H](CN(C)C)[C@@H](C)CN([C@H](C)CO)S3(=O)=O)cc1	-4.2	1.1

Structure	Vaccinia stage	Vaccinia stage Venus
COCC#Cc1cnc2c(c1)C(=O)N([C@H](C)CO)C[C@@H](C)[C@@H](CN(C)C(=O)C1CCC1)O2	-5.1	-0.9
C/C=C/c1ccc([C@@H]2[C@@H](CO)N3C(=O)CN(C(=O)Nc4ccccc4F)C[C@@H]23)cc1	-29.6	-30.8
CC(C)(C)[C@@H]1C=C(C(=O)NCc2ccccc2)O[C@H](OCc2ccc(CO)cc2)C1	4.9	-9.0
C[C@@H]1CN([C@H](C)CO)C(=O)c2cc(NC(=O)Nc3ccc(F)cc3)ccc2O[C@H]1CN(C)C(=O)Nc1ccc(F)cc1	4.7	0.3
COCC#Cc1cnc2c(c1)C(=O)N([C@H](C)CO)C[C@H](C)[C@@H](CN(C)C(=O)Cc1ccccc1)O2	18.4	9.5
COc1cccc(-c2cn(CC[C@@H]3CC[C@H](NS(=O)(=O)c4ccccc4Cl)[C@H](CO)O3)nn2)c1	-4.3	3.3
NCC[C@@H]1CC[C@H](NC(=O)C2CCCC2)[C@H](CO)O1	-2.4	2.8
Cc1ccc(S(=O)(=O)Nc2ccc3c(c2)C(=O)N([C@H](C)CO)C[C@H](C)[C@H](CN(C)C(=O)NC2CCCCC2)OCCCC[C@@H](C)O3)cc1	16.4	28.6
CO[C@@H]1CN(C)C(=O)c2ccc(NC(C)=O)cc2OC[C@@H](C)N(Cc2ccccc2F)C[C@H]1C	-6.4	-0.1
N#C[C@@H]1[C@@H](c2ccc(C#CC3CCCC3)cc2)[C@H](CO)N1C(=O)Nc1ccc(F)cc1	-19.4	-19.7

Structure	Vaccinia stage	Vaccinia stage Venus
CCCC(=O)Nc1ccc2c(c1)OC[C@H](C)N(C(=O)c1cnccn1)C[C@H](C)[C@H](OC)CN(C)C2=O	2.0	3.1
C[C@H]1CN([C@@H](C)CO)C(=O)Cc2cc(NC(=O)Nc3ccc(F)cc3)ccc2O[C@@H]1CN(C)C(=O)Nc1ccccc1	15.6	4.7
C[C@@H]1CN([C@@H](C)CO)C(=O)c2cc(C3=CCCCC3)cnc2O[C@H]1CN(C)Cc1ccncc1	-7.3	-4.4
COCCNC(=O)C[C@H]1C=C[C@@H](NS(=O)(=O)c2ccc(C)cc2)[C@@H](CO)O1	1.9	5.5
CC(=O)N(C)C[C@H]1[C@H](c2ccc(C3=CCCCC3)cc2)[C@H](CO)N1CC1CC1	-8.7	1.6
O=C(C[C@@H]1CC[C@H]2[C@@H](COC[C@H](O)CN2C(=O)c2ccccc2F)O1)N1CCN(c2ccccc2)CC1	-5.4	-4.6
C[C@@H]1CN([C@H](C)CO)C(=O)Cc2cc(NC(=O)Cn3cnnn3)ccc2O[C@@H]1CN(C)Cc1ccccc1	7.0	10.8
O=C(Nc1nccs1)[C@H]1[C@H](CO)[C@H]2Cn3c(cccc3=O)[C@H]2N1C(=O)C1CCC1	-2.5	-5.8
CCCNC(=O)N(C)C[C@H]1Oc2ncc(C#C[C@@H](C)O)cc2C(=O)N([C@H](C)CO)C[C@@H]1C	2.5	0.2
Cc1noc(C)c1NC(=O)N(C)C[C@H]1Oc2c(NC(=O)c3ccncc3)cccc2C(=O)N([C@@H](C)CO)C[C@H]1C	2.0	1.6

Structure	Vaccinia stage	Vaccinia stage Venus
C[C@@H](O)C#Cc1cnc2c(c1)C(=O)N([C@@H](C)CO)C[C@H](C)[C@@H](CN(C)C(=O)Nc1ccc(C(F)(F)F)cc1)O2	6.0	-10.2
CCC(=O)N(C)C[C@H]1Oc2ncc(C#Cc3cccnc3)cc2C(=O)N([C@H](C)CO)C[C@@H]1C	9.4	2.1
CO[C@H]1CN(C)C(=O)c2cc(NC(=O)Nc3cccc(Cl)c3)ccc2OC[C@H](C)NC[C@@H]1C	?	·
COC(=O)[C@@H]1[C@@H](CO)[C@@H]2Cn3c(ccc(-c4ccccc4)c3=O)[C@@H]2N1C(=O)CC1CC1	11.5	9.7
CO[C@H]1CN(C)C(=O)c2ccc(NC(=O)C3CCC3)cc2OC[C@H](C)N(Cc2cccnc2)C[C@H]1C	-12.1	-14.2
Cc1ccc(S(=O)(=O)N2C[C@H](O)COC[C@@H]3O[C@H](CC(=O)N[C@@H]4CCN(Cc5ccccc5)C4)CC[C@H]32)cc1	-13.1	-10.0
O=C(C[C@H]1C=C[C@@H](NS(=O)(=O)c2ccccc2)[C@H](CO)O1)NCc1ccc(Cl)c(Cl)c1	0.8	-3.6
O=C(C[C@@H]1CC[C@@H]2[C@H](COC[C@H](O)CN2S(=O)(=O)c2ccc(Oc3ccccc3)cc2)O1)NC1CCC1	-24.9	-17.4
CNC[C@@H]1Oc2ccc(NC(=O)CCC(F)(F)F)cc2C(=O)N([C@@H](C)CO)C[C@H]1C	4.7	12.6
C[C@H](CO)N1C[C@H](C)[C@@H](CN(C)C(=O)NC2CCCCC2)Oc2ccc(NC(=O)CCC(F)(F)F)cc2CC1=O	0.1	-1.7

Structure	Vaccinia stage	Vaccinia stage Venus
C/C=C/c1ccc([C@@H]2[C@@H](CO)N3C(=O)CN(Cc4ccc(F)cc4)C[C@@H]23)cc1	-10.7	-9.7
CCN(C[C@H]1[C@H](c2ccccc2)[C@H](CO)N1C(=O)COC)S(C)(=O)=O	4.0	9.7
COc1ccc(NC(=O)N(C)C[C@@H]2Oc3ccc(NC(=O)NC(C)C)cc3C(=O)N([C@@H](C)CO)C[C@H]2C)cc1	18.0	2.6
Cc1noc(C)c1NC(=O)Nc1ccc2c(c1)C(=O)N([C@@H](C)CO)C[C@@H](C)[C@@H](CN(C)Cc1ccncc1)OCCCC[C@@H](C)O2	11.5	11.4
O=S(=O)(c1cccs1)N1CCCCN2[C@H](CO)[C@H](c3ccc(-c4ccccc4)cc3)[C@@H]2C1	-15.7	-14.9
O=C(Cc1ccccn1)NCC[C@@H]1CC[C@H](NC(=O)Nc2ccc(Cl)cc2)[C@H](CO)O1	8.8	10.1
C[C@H](CO)N1C[C@H](C)[C@@H](CN(C)Cc2ccc(C(=O)O)cc2)OCCCC[C@H](C)Oc2ccc(NC(=O)Nc3ccc(F)cc3)cc2C1=O	15.6	12.9
O=C(N[C@H]1CC[C@H](CCn2cc(C3(O)CCCC3)nn2)O[C@@H]1CO)C1CCOCC1	-5.8	7.7
Cn1cnc(CCNC(=O)C[C@H]2CC[C@@H]3[C@H](COC[C@@H](O)CN3C(=O)C3CC3)O2)c1	2.6	10.8
C/C=C/c1ccc2c(c1)O[C@H](CN(C)C(C)=O)[C@@H](C)CN([C@@H](C)CO)S2(=O)=O	13.6	7.8

Structure	Vaccinia stage	Vaccinia stage Venus
C[C@H]1CN([C@@H](C)CO)C(=O)c2cc(NS(=O)(=O)c3cn(C)cn3)ccc2O[C@H]1CN(C)C(=O)Nc1ccc(C(F)(F)F)cc1	23.1	8.8
CS(=O)(=O)N1CC2(C1)[C@@H](c1ccccc1)[C@@H](CO)N2C(=O)c1ccccc1	5.9	11.5
C[C@@H]1CN([C@@H](C)CO)C(=O)c2cc(/C=C/c3ccccc3)cnc2O[C@H]1CN(C)C(=O)C1CCOCC1	16.1	7.7
Cc1ccc(S(=O)(=O)N(C)C[C@@H]2Oc3ccc(NC(=O)NC(C)C)cc3C(=O)N([C@@H](C)CO)C[C@@H]2C)cc1	-1.7	-2.4
CN(C)C(=O)[C@H]1[C@H](CO)[C@H]2Cn3c(ccc(-c4ccccc4)c3=O)[C@@H]1N2C(=O)C1CCC1	-5.9	1.0
CCC(=O)Nc1ccc2c(c1)OC[C@@H](C)N(CCC(F)(F)F)C[C@H](C)[C@H](OC)CN(C)C2=O	3.3	1.5
CCN(C[C@H]1N[C@@H](CO)[C@@H]1c1ccc(C2=CCCC2)cc1)C(=O)c1cccnc1	-0.2	17.1
O=C(C[C@H]1C[C@@H]2c3cc(NS(=O)(=O)c4ccccc4)ccc3O[C@@H]2[C@H](CO)O1)NCC1CC1	17.5	6.7
COc1ccc(S(=O)(=O)Nc2cccc3c2O[C@@H](CN(C)Cc2ccc(C(F)(F)F)cc2)[C@H](C)CN([C@@H](C)CO)C3=O)cc1	-21.6	-12.3
C[C@@H]1CN([C@H](C)CO)C(=O)c2cc(NC(=O)Nc3ccc(F)cc3)ccc2O[C@H]1CN(C)S(=O)(=O)c1cccs1	18.3	9.2

Structure	Vaccinia stage	Vaccinia stage Venus
C[C@H](CO)N1C[C@H](C)[C@H](CN(C)C(=O)Nc2cccc3ccccc23)OCCCC[C@H](C)Oc2ccc(NC(=O)Nc3ccc(F)cc3)cc2C1=O	34.9	12.3
O=C(C[C@H]1C=C[C@H](NC(=O)C2CC2)[C@@H](CO)O1)Nc1ccccc1	3.9	17.5
CN1C(=O)c2cc(NC(=O)C3CCOCC3)ccc2OC[C@@H]2O[C@H](CC(=O)NCC3CC3)CC[C@H]21	6.6	2.4
COCc1cn(CC[C@H]2CC[C@H](NC(=O)Nc3c(C)noc3C)[C@H](CO)O2)nn1	-3.3	12.7
O=C(C[C@H]1CC[C@@H]2[C@H](COC[C@@H](O)CN2CC2CCOCC2)O1)N1CCOCC1	7.6	0.7
O=C(Cc1ccccn1)NCC[C@H]1CC[C@H](NC(=O)Nc2ccccc2)[C@H](CO)O1	8.9	6.8
COC(=O)C[C@@H]1CC[C@@H]2[C@H](COc3ccc(NC(=O)Nc4ccc(C#N)cc4)cc3C(=O)N2C)O1	-2.3	-0.7
CN(C)C(=O)C[C@@H]1CC[C@@H]2[C@H](COC[C@H](O)CN2C(=O)C2CC2)O1	10.1	15.1
CCNC(=O)C[C@@H]1CC[C@@H]2[C@@H](COc3ccc(NC(=O)c4ccccc4)cc3C(=O)N2C)O1	1.6	-1.4
CCN1[C@H](C(=O)Nc2nccs2)[C@@H](CO)[C@@H]2Cn3c(ccc(-c4ccccc4OC)c3=O)[C@@H]21	14.1	9.2
CC(C)CC#Cc1cnc2c(c1)C(=O)N([C@H](C)CO)C[C@H](C)[C@H](CN(C)C(=O)CN1CCOCC1)O2	21.4	14.9
